# TLR4-MyD88 BLA = inhibitors of TLR4-MyD88 association in cells, primary screen, cell-based, HeLa CL3-4, BLA complementation, FRET ratio; HeLa CL3-4 TLR4/MyD88 BLA complementation; actives 0.18% (n = 200,000); inhibition, % at 8.4 µM; Toll-like receptor 4 (Homo sapiens) + Myeloid differentiation primary response protein …; in the data active = inhibition above about 25%;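 note: 0% = vehicle and 100% = reference inhibitor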
# STAT1 inh = STAT1 signaling inhibitors, primary screen, cell-based, HTS, luciferase reporter; NIH 3T3 STAT1-luciferase reporter, IFN-gamma, luminescence; inhibition, % at 5.5 µM; actives 0.35% (n = 200,000); AID 920, 2007;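 active = inhibition above a set limit, the mean inhibition across all tested compounds plus 3 SD, cut at about 34% in these data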;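 note: 0% = IFN-gamma with DMSO and 100% = IFN-gamma with 300 µM nifuroxazide; values of inactives mirror those of a sister screen read the other way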
# Hsp70 act = Hsp70 transcriptional activators, primary screen, cell-based, HeLa, Hsp70 promoter luciferase, luminescence, 10 µM; actives 0.04% (n = 200,000); AID 1203, 2008; HeLa Hsp70 promoter luciferase reporter; scaled: vehicle 0, proteasome-inhibitor control 100%; activation, % at 10 µM;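 active = activation above the mean across all tested compounds plus 3 SD, cutoff set per campaign, cut at about 5.5% in these data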;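 note: 100% = MG132 at 30 µM as the positive control and 0% = DMSO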
# HMGR II inh = inhibitors of E. faecalis class II HMGR, primary screen, biochemical, Enterococcus faecalis. purified E. faecalis HMGR, NADPH absorbance 340 nm kinetic. inhibition, % at 10 µM. actives 0.41% (n = 190,000). HMG-CoA reductase (Enterococcus faecalis, mvaE);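 active = inhibition above a set limit, the median over all tested compounds plus 3 SD, cut at about 9.5% in these data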;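 note: enzyme runs in reverse so mevalonate oxidation gives rising NADPH absorbance; 0% = complete reaction with DMSO and 100% = background rate lacking mevalonate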
# DTT redox prof = compounds producing H2O2 with reducing agent – biochemical, NIH compound library profiling, artefact control for MLSCN library redox annotation, primary screen; DTT-dependent redox cycling H2O2, phenol red/HRP absorbance; 100% = 100 µM peroxide control, 0% = buffer; activation, % at 10 µM; actives 0.03% (n = 200,000);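 active = activation of at least 50% relative to the plate's high and low controls in the primary single-dose screen; inactive = activation below 50%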;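 note: compound incubated with DTT at 0.8 mM final as the reducing agent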
# * hit, by the source's call; & = joins results of further samples; ! = a repeat was not active. A portion of the library. The share of hits here may be higher or lower than overall.
(1) O=C(NCc1cccnc1)c1cc(-c2ccco2)on1
(2) CCCCN1/C(=C/c2ccc3ccccc3[n+]2CC)Sc2ccccc21
(3) CCCn1c(=O)[nH]c(=O)c2[nH]cnc21
(4) Cc1nc(-c2ccc(C(=O)Nc3cccc(Br)c3)cc2)cs1
(5) O=C(Nc1nc2ccccc2s1)c1ccccc1

Compound | 1 | 2 | 3 | 4 | 5
TLR4-MyD88 BLA | 4.1 | 19.9 | -4.8 | 9.2 | -6.2
STAT1 inh | -11.3 | 28.8 | -8.8 | -27.2 | -15.8
Hsp70 act | -0.1 | -0.5 | -0.3 | -0.1 | 0.0
HMGR II inh | 1.2 | -4.5 | -2.6 | -6.2 | -0.9
DTT redox prof | -1.2 | -1.2 | 0.6 | 15.9 | -1.4

# Next part; the last three above are carried over.
(3) CCCn1c(=O)[nH]c(=O)c2[nH]cnc21
(4) Cc1nc(-c2ccc(C(=O)Nc3cccc(Br)c3)cc2)cs1
(5) O=C(Nc1nc2ccccc2s1)c1ccccc1
(6) Cc1cc(N)n2nc(-c3ccc(C(C)(C)C)cc3)cc2n1
(7) C[N+](C)(C)CCCCCCCCCC[N+](C)(C)C
(8) COc1c2occc2cc2ccc(=O)oc12
(9) CSc1ccc(CN2CCN(Cc3ccc([N+](=O)[O-])cc3)CC2)cc1
(10) CCN1/C(=C\c2ccc3ccccc3[n+]2CC)Sc2cc(C)ccc21

Compound | 3 | 4 | 5 | 6 | 7 | 8 | 9 | 10
TLR4-MyD88 BLA | -4.8 | 9.2 | -6.2 | 1.1 | -0.8 | -8.9 | 12.7 | 17.3
STAT1 inh | -8.8 | -27.2 | -15.8 | -0.2 | -7.5 | -7.7 | 11.5 | 5.5
Hsp70 act | -0.3 | -0.1 | 0.0 | -0.5 | -0.3 | 0.5 | 0.1 | -0.3
HMGR II inh | -2.6 | -6.2 | -0.9 | -1.5 | 1.3 | 0.3 | -3.5 | -1.3
DTT redox prof | 0.6 | 15.9 | -1.4 | 7.2 | 0.4 | -2.7 | -1.3 | -0.6

# Next compounds
# Letters – A = TLR4-MyD88 BLA; B = STAT1 inh; C = Hsp70 act; D = HMGR II inh; E = DTT redox prof
11: COc1ccc(-c2csc(-c3cccs3)n2)c(OC)c1
  A: -10.6; B: -61.2; C: -0.1; D: 2.3; E: -2.2
12: CCN1/C(=C\c2ccc3cc(C)ccc3[n+]2CC)Sc2cc(C)c(C)cc21
  A: 11.9; B: 20.0; C: -0.1; D: 0.1; E: -0.1
13: CCCCCCCn1ccc(=N)cc1
  A: -3.5; B: 30.4; C: -0.5; D: -0.4; E: 0.3
14: CN(C)CCOC(c1ccccc1)c1ccccc1
  A: 0.9; B: -3.7; C: -0.3&0.1; D: 17.9*!; E: 2.3
15: Nc1ccn([C@@H]2O[C@H](CO)[C@@H](O)[C@@H]2O)c(=O)n1
  A: 5.2; B: 12.3; C: -0.3; D: -5.4; E: -1.5
16: CCCOc1ccc(-c2nnc(-c3cccs3)o2)cc1
  A: -3.4; B: -18.0; C: -0.3; D: -0.9; E: 0.3
17: Cc1cc(NS(=O)(=O)c2ccc(N)cc2)no1
  A: -2.5; B: 0.5; C: -0.3; D: -0.8; E: 0.4

# Six entries from above, arranged by length of the SMILES, smallest number first:
# Letters – A = TLR4-MyD88 BLA; B = STAT1 inh; C = Hsp70 act; D = HMGR II inh; E = DTT redox prof
13: CCCCCCCn1ccc(=N)cc1
  A: -3.5; B: 30.4; C: -0.5; D: -0.4; E: 0.3
14: CN(C)CCOC(c1ccccc1)c1ccccc1
  A: 0.9; B: -3.7; C: -0.3&0.1; D: 17.9*!; E: 2.3
11: COc1ccc(-c2csc(-c3cccs3)n2)c(OC)c1
  A: -10.6; B: -61.2; C: -0.1; D: 2.3; E: -2.2
10: CCN1/C(=C\c2ccc3ccccc3[n+]2CC)Sc2cc(C)ccc21
  A: 17.3; B: 5.5; C: -0.3; D: -1.3; E: -0.6
9: CSc1ccc(CN2CCN(Cc3ccc([N+](=O)[O-])cc3)CC2)cc1
  A: 12.7; B: 11.5; C: 0.1; D: -3.5; E: -1.3
12: CCN1/C(=C\c2ccc3cc(C)ccc3[n+]2CC)Sc2cc(C)c(C)cc21
  A: 11.9; B: 20.0; C: -0.1; D: 0.1; E: -0.1
